EPAC2 ag: qHTS for Agonist of cAMP-regulated guanine nucleotide exchange factor 4 (EPAC2): primary screen. EPAC2 activation, biochemical qHTS; response scale: 100% = 6.5 mM cAMP response. Potency, µM (titrated, usually from 154 µM), for inactives: at the highest dose activation, hits mostly activators. hit rate 0.079% among 360,000. AID 720711, 2013; also: nearly all actives have a fitted effect of over 50% in size
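qHTS, titration series. 100 nM EPAC2 / 250 nM Rap1B-BODIPY-GDP / 50 uM GDP; RT; ex 480/em 540 nm, 5-min reads to 30 min. Norm. to 6.5 mM cAMP = activation.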
aSyn yeast inh: qHTS of alpha-syn Inhibitors; Yeast expressing alpha-synuclein, growth rescue, BacTiter-Glo, 24 h; Potency, µM (doses to about 46.1 µM), without a hit: at the highest dose growth rescue (activation), usual class: activators; hit rate 0.14% among 370,000; AID 652106, 2013; also: % of control where 0% means no effect; nearly all actives have a fitted effect of over 65% in size
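Readout is rescue of growth in alpha-synuclein-expressing yeast, so inhibitors of toxicity appear as activators. Growth after 24 hr at 30 deg C in galactose medium is quantified by luminescence.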
TDP-43 yeast inh: qHTS of TDP-43 Inhibitors | TDP-43 expressing yeast growth rescue, BacTiter-Glo, 24 h | Potency, µM (doses to about 46.1 µM), inactives show at the highest dose growth rescue (activation), usual class: activators | hit rate 1.8% among 410,000 | AID 652104, 2013; also: % of control where 0% means no effect; nearly all actives have a fitted effect of over 50% in size
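In this qHTS, compounds that restore growth of yeast expressing TDP-43 appear as activators. Cells (OD600=0.02, galactose medium, raffinose-pregrown) are incubated with compound 24 hr at 30 deg C and growth is quantified by BacTiter-Glo.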
EPAC2 antagonist: qHTS for Antagonist of cAMP-regulated guanine nucleotide exchange factor 2 (EPAC2): primary screen; hit rate 0.18% among 360,000; EPAC2 GEF exchange of Rap1B-BODIPY-GDP, fluorescence; Potency, µM (series often up to 114 µM), inactives show top-dose activity, negative = inhibition, actives largely listed as inhibitors; Rap guanine nucleotide exchange factor 4 (Homo sapiens), Q8WZA2; also: % is scaled to controls: 0 for no effect and ±100 for the full control effect; nearly all actives have a fitted effect of over 45% in size; many of its hits are not listed in these tables
* marks the source's active call; other numbers are inactive results; ? = inconclusive; . = not tested or not shown; & = joins results of further samples. Calls follow the shape of the dose curve; as a rule, active = well fitted curve in the direction sought with a large enough effect; inconclusive = small, poorly fitted or top-dose-only effect, or another doubt; inactive = no such curve, though single readings can be large; an effect the other way counts as inactive or inconclusive. Potency is read from the fitted curve at half-maximal effect.

A first look, 4 compounds:
SMILES	EPAC2 ag	aSyn yeast inh	TDP-43 yeast inh	EPAC2 antagonist
Nc1nc2ncc(CNc3ccc(C(=O)NC(CCC(=O)O)C(=O)O)cc3)nc2c(=O)[nH]1 (stereo not drawn)	.	-3%	.	.
NCC(O)c1ccc(O)c(O)c1 (stereo not drawn)	1%	-12%&-3%	29%	-11%
NC1CONC1=O (stereo not drawn)	.	-6%	.	.
CC(C)OC(=O)C(C)(C)Oc1ccc(C(=O)c2ccc(Cl)cc2)cc1	0%	-4%&-3%	-2%	4%

The whole of this part (from the top)
SMILES	EPAC2 ag	aSyn yeast inh	TDP-43 yeast inh	EPAC2 antagonist
Nc1nc2ncc(CNc3ccc(C(=O)NC(CCC(=O)O)C(=O)O)cc3)nc2c(=O)[nH]1 (stereo not drawn)	.	-3%	.	.
NCC(O)c1ccc(O)c(O)c1 (stereo not drawn)	1%	-12%&-3%	29%	-11%
NC1CONC1=O (stereo not drawn)	.	-6%	.	.
CC(C)OC(=O)C(C)(C)Oc1ccc(C(=O)c2ccc(Cl)cc2)cc1	0%	-4%&-3%	-2%	4%
CNCCC=C1c2ccccc2CCc2ccccc21	7%	2%&3%	20%	7%
Nc1nc2ncc(CNc3ccc(C(=O)N[C@@H](CCC(=O)O)C(=O)O)cc3)nc2c(=O)[nH]1	1%	?	0%	10%
CCc1cc(C(N)=S)ccn1	-5%&1%	1%&-5%	28%&22%	5%&13%
CNCCCC1c2ccccc2C=Cc2ccccc21	0%	0%&9%	25%	5%
CSc1ccc(C(=O)c2[nH]c(=O)[nH]c2C)cc1	6%	1%&-1%	14%	-7%
CC(=O)OCC(=O)C1(O)CCC2C3CCC4=CC(=O)C=CC4(C)C3C(O)CC21C (stereo not drawn)	0%	-1%	-6%	-2%
CCn1nc(C(=O)O)c(=O)c2cc3c(cc21)OCO3	-1%	-3%&-6%	-26%	3%
CCC(C)(C)C(=O)O[C@H]1C[C@@H](C)C=C2C=C[C@H](C)[C@H](CC[C@@H]3C[C@@H](O)CC(=O)O3)[C@H]21	-1%	16%	14µM*	-6%
CNCCCC12CCC(c3ccccc31)c1ccccc12	-5%&-1%&11%	1%&0%&6%&4%	28%&17%&0%	-7%&-13%&7%
OC[C@@H](O)[C@@H](O[C@H]1O[C@H](CO)[C@@H](O)[C@H](O)[C@H]1O)[C@H](O)[C@@H](O)CO	-2%	-7%	23%	1%

Taken from above.
Entry of CCn1nc(C(=O)O)c(=O)c2cc3c(cc21)OCO3 in aSyn yeast inh: -3%&-6%
Entry of OC[C@@H](O)[C@@H](O[C@H]1O[C@H](CO)[C@@H](O)[C@H](O)[C@H]1O)[C@H](O)[C@@H](O)CO in TDP-43 yeast inh: 23%
Entry of Nc1nc2ncc(CNc3ccc(C(=O)N[C@@H](CCC(=O)O)C(=O)O)cc3)nc2c(=O)[nH]1 in TDP-43 yeast inh: 0%
Entry of CNCCC=C1c2ccccc2CCc2ccccc21 in TDP-43 yeast inh: 20%

A second format for some results above.
canonical_smiles | EPAC2 ag | aSyn yeast inh | TDP-43 yeast inh | EPAC2 antagonist
NCC(O)c1ccc(O)c(O)c1 (stereo not drawn) | 1% | -12%&-3% | 29% | -11%
NC1CONC1=O (stereo not drawn) | . | -6% | . | .
CC(C)OC(=O)C(C)(C)Oc1ccc(C(=O)c2ccc(Cl)cc2)cc1 | 0% | -4%&-3% | -2% | 4%
CNCCC=C1c2ccccc2CCc2ccccc21 | 7% | 2%&3% | 20% | 7%

This is a subset. The share of hits here may be higher or lower than overall.
